B2AR ag: human beta-2 adrenergic receptor agonism by FAP; Am2.2-beta2AR cells, FAP receptor internalization, flow cytometry; reference of the scale not given here; AID 504454; response, % (concentration not given with the values); 0.43% of 340,000 active; P07550;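 active = response above a set limit, near 3 SD of response in nonfluorescent compounds, cut at about 42% in these data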;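 note: stock transfer was 100 nL into about 11 µL; a reference agonist was the positive control; negative values mostly stem from fluorescent compounds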
E coli growth: E. coli growth inhibition. Escherichia coli growth, OD600, 23 h; stronger effect = lower value. OD600 absorbance (no concentration beside the values). 0.21% of 330,000 active. AID 1053175;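 active = OD600 absorbance below the run mean of sample wells minus 3.6 SD, in any replicate, cut at about 0.56 in these data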;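 note: stock transfer was 300 nL into about 60 µL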
FGF22 binding: FGF22 (human) thermal shift binding. AID 651658. 1.5% of 340,000 active. recombinant FGF22 thermal shift, SYPRO orange fluorescence; percent of sucrose octasulfate shift, DMSO zero. calls only at 9.99 µM;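 active = melting point raised past a set limit in the mean and every replicate; three in four hits are not shown here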
LANA-H2B inh: blocks KSHV LANA binding to histone H2A/H2B; Q9QR71; cell-free LANA-H2A/H2B peptide, fluorescence polarization; inhibition, % (test concentration not listed); 0.6% of 320,000 active; AID 2629; in the data active = inhibition mostly above about 10%, no sharp cut-off; inactive = mostly below about 6.7%;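 note: stock transfer was 7.5 nL into about 10 µL; 0% = median of vehicle wells and 100% = median of positive control wells; one replicate is shown; the record names a cut of 25% in any replicate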
Target sequence (Q9QR71 whole entry, looked up): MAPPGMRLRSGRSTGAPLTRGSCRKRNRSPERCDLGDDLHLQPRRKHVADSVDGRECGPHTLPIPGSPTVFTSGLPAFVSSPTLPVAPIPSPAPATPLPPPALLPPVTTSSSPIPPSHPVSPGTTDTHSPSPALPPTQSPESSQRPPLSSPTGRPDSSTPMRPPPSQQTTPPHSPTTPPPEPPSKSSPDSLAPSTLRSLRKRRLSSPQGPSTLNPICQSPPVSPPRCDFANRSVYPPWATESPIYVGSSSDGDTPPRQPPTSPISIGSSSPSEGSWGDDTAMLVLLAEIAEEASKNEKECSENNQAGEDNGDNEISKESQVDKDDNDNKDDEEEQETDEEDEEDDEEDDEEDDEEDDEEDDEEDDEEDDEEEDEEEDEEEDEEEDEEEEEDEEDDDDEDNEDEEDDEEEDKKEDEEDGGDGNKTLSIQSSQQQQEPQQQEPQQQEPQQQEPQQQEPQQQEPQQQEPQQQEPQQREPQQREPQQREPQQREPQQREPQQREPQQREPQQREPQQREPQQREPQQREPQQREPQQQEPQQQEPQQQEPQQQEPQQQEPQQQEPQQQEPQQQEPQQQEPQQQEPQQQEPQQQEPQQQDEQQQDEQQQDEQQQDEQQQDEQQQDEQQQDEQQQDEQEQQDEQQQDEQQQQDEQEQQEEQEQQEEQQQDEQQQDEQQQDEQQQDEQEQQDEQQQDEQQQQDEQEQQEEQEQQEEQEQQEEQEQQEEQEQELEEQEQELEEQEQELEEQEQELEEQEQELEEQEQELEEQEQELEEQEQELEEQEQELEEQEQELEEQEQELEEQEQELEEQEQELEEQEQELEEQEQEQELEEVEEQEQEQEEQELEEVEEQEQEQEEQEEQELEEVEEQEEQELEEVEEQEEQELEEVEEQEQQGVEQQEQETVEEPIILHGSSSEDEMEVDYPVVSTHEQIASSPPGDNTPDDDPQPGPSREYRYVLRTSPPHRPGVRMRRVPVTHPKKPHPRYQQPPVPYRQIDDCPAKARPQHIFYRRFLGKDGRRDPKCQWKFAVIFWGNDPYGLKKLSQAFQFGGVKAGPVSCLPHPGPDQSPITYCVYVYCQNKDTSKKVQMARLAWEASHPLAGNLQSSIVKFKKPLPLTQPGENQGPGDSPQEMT
UCH37 inh: blocks the human deubiquitinase UCH37; Q9Y5K5; purified proteasome/UCH37, Ub-AMC cleavage fluorescence; inhibition, % (test concentration not listed); 0.33% of 330,000 active; AID 588478;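 active = mean of two replicates above 20%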;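 note: 0% = compound-free wells with enzyme and 100% = wells lacking proteasome; stock transfer was 100 nL into about 20 µL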
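system = Proteasome-associated human UCH37 deubiquitinase | amount = 0.15 nM proteasome as dispensed | medium = pH 7.4 Tris-HCl (50 mM) with ovalbumin, ATP-MgCl2, DTT | incubation = 30 min preincubation with enzyme, 25 min cleavage at room temperature | detection = AMC fluorescence 355/460 nm | read-out basis = percent inhibition | controls = no-proteasome and no-compound wells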
ALR inh: blocks human ALR sulfhydryl oxidase activity. P55789. purified ALR, DTT oxidation, H2O2 HRP-luminol luminescence. inhibition, % (no concentration beside the values). 3.8% of 290,000 active. AID 485317;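 active = mean and each replicate at 75% or more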;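 note: stock transfer was 7.5 nL into about 7.5 µL; 0% = neutral wells and 100% = wells with inactivated enzyme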
HNF4A DNA FP: change in binding of human HNF4 alpha to DNA; P41235; HNF4a-FITC DNA binding, fluorescence polarization, 1 h; activity change, % at 10 µM; 0.3% of 360,000 active; AID 1224865; in the data active = activity change above about 30%, passing the limit was not always enough;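 note: controls were the assay level and a saturating level of protein; the project sought stronger binding though the title names inhibitors; some compounds called inactive have numbers as strong as hits; positive values seem to mean higher polarization but the record does not say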
Active calls of the source: *; i = inactive; . = not tested or not shown; & = joins results of further samples. A portion of the library; the hit share may differ from the screen's.

SMILES	B2AR ag	E coli growth	FGF22 binding	LANA-H2B inh	UCH37 inh	ALR inh	HNF4A DNA FP
Cc1nonc1OC(C)CNCCNc1ccc([N+](=O)[O-])cc1 (stereo unspecified)	2.8	0.611	i	0.9	8.3	-5.5	-0.4
Cc1nc(N2CCOCC2)c(C#N)c2c1COC(C)(C)C2	-4.9	0.666	.	-5.2	-109.3	-4.1	-0.6
O=C(NC(=S)Nc1ccccc1CO)C1CCCCC1	-6.9	0.698	.	-3.1	0.4	2.5	-2.2
O=C(CCN1CCc2ccccc2C1)Nc1ccc(F)cc1	1.3	0.673	.	1.4	0.7	-32.4	-1.0
Cc1ccccc1Nc1nc(=O)c2cc([N+](=O)[O-])ccc2s1	-9.1	0.673	.	-7.5	-0.4	.	2.8
CC(C)NC(=S)NC(=O)/C=C/c1cccc2ccccc12	7.5	0.729	i	1.6	0.5	-5.9	6.0
Cc1ccc(P(C)(=O)c2ccc(C)cc2)cc1	-0.1	0.689	.	0.7	0.2	-2.8	0.7
COc1ccc(CNC(=O)c2c(F)c(F)c(F)c(F)c2F)cc1	2.7	0.693	i	2.5	0.6	2.6	-2.8
Cc1ccn2c(NCc3ccc4c(c3)OCO4)c(-c3ccc(O)cc3)nc2c1	-21.2	0.753	i	-4.5	-147.3	3.1	-1.4
CC(C)CN1CCN(CC#Cc2ccccc2)CC1CCO (stereo unspecified)	-1.4	0.646	i	2.8	-0.1	-2.8	-1.1
COc1ccc(C(=O)C[n+]2ccc(-c3nnc4n3CCC4)cc2)cc1	-2.1	0.701	.	-4.0	-1.0	9.0	1.6
COc1ccccc1NS(=O)(=O)c1cc(C(=O)N2CCN(C/C=C/c3ccccc3)CC2)ccc1C	2.8	0.716	i	-3.9	3.4	-6.3	-0.7
CC1Nc2ncnc(N3CCc4ccccc4C3)c2N(Cc2ccc(Br)cc2)C1=O (stereo unspecified)	0.1	.	i	-1.5	4.3	-1.4	17.6&10.8
Nc1nc(-c2ccco2)nn1S(=O)(=O)c1ccc(Cl)cc1	-4.2	0.74	i	3.6	2.3	10.4	0.6
O=C(NCCN1CCOCC1)c1cc(-c2ccc(Cl)cc2)on1	-4.3	0.703	i	0.0	1.2	-3.0	-0.2
COc1ccc(Nc2nc(S(=O)(=O)c3ccc(C)cc3)c(Cl)s2)cc1	5.9	0.684	i	-5.8	6.5	-1.1	-3.3
COc1ccc(C(=O)c2c[nH]c(C(=O)NCc3ccco3)c2)cc1	1.9	0.776	.	1.3	-0.1	.	-0.3
CC(=O)c1c(OC(=O)c2ccccc2)c2ccccc2n1C	5.9	0.66	.	10.3	5.3	-3.6	-3.6
CCC1CCCCN1CCCNC(=O)Cn1nc(-c2ccc(C)cc2)ccc1=O (stereo unspecified)	3.1	0.712	.	2.5	-9.0	0.3	-1.3
O=C(Nc1ccc(OC(F)(F)F)cc1)c1[nH]ncc1[N+](=O)[O-]	14.3	0.702	i	3.4	7.1	-4.0	-1.8
O=C(NCc1cccnc1)c1cccc(S(=O)(=O)Nc2cccc(Cl)c2)c1	-5.0	0.699	i	5.4	0.9	0.2	2.6
Brc1ccc(Oc2nsnc2N2CCOCC2)cc1	16.3	0.669	.	1.1	-0.6	-4.3	1.7
CCOC(=O)C1=C(CS(=O)(=O)c2ccccc2)NC(=O)NC1c1ccc(O)c(OC)c1 (stereo unspecified)	-2.1	0.625	i	0.7	0.7	31.4	4.4
COC(=O)/C(C#N)=C/c1c(Oc2cccc(C)c2C)nc2ccccn2c1=O	5.2	0.726	i	-0.7	4.0	-6.9	-2.0
COC(=O)c1cn(NC(=O)c2cc(OC)c(OC)c(OC)c2)c(=O)c2ccccc12	8.1	0.737	.	3.0	-0.5	37.7	5.0

Overlap with the part before: two entries, followed by the next part.
SMILES	B2AR ag	E coli growth	FGF22 binding	LANA-H2B inh	UCH37 inh	ALR inh	HNF4A DNA FP
COC(=O)/C(C#N)=C/c1c(Oc2cccc(C)c2C)nc2ccccn2c1=O	5.2	0.726	i	-0.7	4.0	-6.9	-2.0
COC(=O)c1cn(NC(=O)c2cc(OC)c(OC)c(OC)c2)c(=O)c2ccccc12	8.1	0.737	.	3.0	-0.5	37.7	5.0
CCC/C(O)=C1\C(=O)CCCC1=NCCCCCC(=O)O	-0.7	.	.	-4.6	-0.8	.	-0.7
COc1ccc(NC(=O)Nc2ccc(N3CCCC3=O)cc2)cc1OC	-2.0	0.719	i	-2.0	4.0	.	1.4
CC(C)(C)c1[nH]c2ccccc2c1/C=N/O	7.0	.	.	2.6	.	98.8*	-0.3
Cc1sc(NC(=S)NC(=O)c2ccco2)c(C(N)=O)c1C	-3.2	0.727	i	-4.9	7.1	-20.6	-2.4
COc1ccc(CNC(=O)c2cc(=O)c3c(C)cc(C)cc3o2)cc1	-4.3	0.667	i	4.6	-0.4	17.5	3.0
Nc1ccc(S(=O)(=O)Nc2nccc(/C=C/c3ccc(Br)s3)n2)cc1	2.3	0.711	.	3.9	6.7	-6.7	10.1
OCCOCCn1c(C(CO)Nc2nc(-c3cccc(Br)c3)cs2)nc2ccccc21 (stereo unspecified)	-9.0	0.672	i	0.0	0.8	.	-1.5
Cc1ccc(C)c(OCC(=O)Nc2c[nH]c(=O)[nH]c2=O)c1	-0.6	0.704	i	3.0	0.5	-1.4	2.1
Cc1ccc(C)c(S(=O)(=O)N2CCN(C(=O)Cc3ccsc3)CC2)c1	-4.5	0.712	i	-8.7	4.3	-0.7	3.7
CCc1ccc(NC(=O)Nc2cc(C(=O)O)ccc2N2CC3CC(C2)c2cccc(=O)n2C3)cc1 (stereo unspecified)	-0.2	0.668	i	0.1	2.3	.	4.3
Cc1ccc(C(=O)N/C(=C\c2cccc([N+](=O)[O-])c2)C(=O)NC(Cc2ccccc2)C(=O)O)cc1 (stereo unspecified)	-1.1	0.726	i	-0.7	2.9	35.6	-0.9
Cc1cc(S(=O)(=O)N2CCN(c3ccc(F)cc3)CC2)c(C)s1	-11.7	0.786	i	-0.6	3.7	7.3	-1.4
NC(=O)C1CCN(C(=O)CCSCc2ccccc2)CC1	-9.6	0.67	i	0.1	3.3	-17.8	-2.4
CCCC(=O)Nc1ccc(NC(=O)Cc2ccccc2)cn1	-0.2	0.722	.	4.3	-0.2	99.1*	-1.8
Cc1cc(Nc2ccccc2C(=O)O)n(-c2cccc(Cl)c2)n1	-2.1	0.584	i	0.6	3.6	98.4*	-1.0
Cn1c(SCC(=O)NCC2COc3ccccc3O2)nnc1C(F)(F)F (stereo unspecified)	-6.8	0.641	i	-3.4	1.0	4.2	1.8
OC[C@H]1OC(O)[C@H](O)[C@@H]1O (stereo partly specified)	-0.7	.	i	1.8	-1.9	-14.0	2.2
Cc1ccc(CN2C(=O)[C@@H]3Cc4c([nH]c5ccccc45)C(C)(C)N3C2=O)cc1	13.9	.	i	-2.2	3.5	-3.0	2.1
CC1CCc2nn(CC(=O)NCc3ccco3)cc2C1 (stereo unspecified)	3.1	0.724	i	10.2	3.1	-6.3	6.5
Cc1ccc(SCC(=O)OCC(=O)N(C)CC(=O)Nc2ccccc2Cl)cc1C	-8.4	0.717	i	-0.3	-0.1	4.7	-0.1
COc1ccccc1NC(=S)N(CCc1ccc(OC)c(OC)c1)Cc1ccccn1	3.5	0.68	i	5.0	3.6	.	8.8
NC(=O)Nn1c(CCC(=O)O)ccc1-c1ccc(Cl)cc1	-0.9	0.642	i	0.0	1.5	53.5	-4.2
COc1ccc(NC(=O)CC2C(=O)N(Cc3cccs3)C(=S)N2C(C)C)cc1 (stereo unspecified)	-0.7	0.688	i	-7.0	5.1	-0.7	-0.5
O=C(Cn1cnc2c(OCc3ccccc3)ncnc21)NCCCN1CCCC1=O	-7.0	0.695	i	-6.1	-1.6	.	-1.9
CC(C)Cn1c(S(=O)(=O)O)nc2ccccc21	1.2	0.692	i	6.2	4.2	-7.9	1.4

Other records.
SMILES	B2AR ag	E coli growth	FGF22 binding	LANA-H2B inh	UCH37 inh	ALR inh	HNF4A DNA FP
Nc1cccc2c3c(oc12)CCCC3	4.3	0.682	i	-0.9	-2.0	2.3	-3.3
O=C(c1ccc([N+](=O)[O-])cc1)N1CCSC1c1ccc(Br)cc1 (stereo unspecified)	2.2	0.648	i	-5.3	-0.1	-8.3	0.1
Cc1cc(C)nc(NC(=O)CSc2nnnn2-c2ccccc2)n1	-10.0	0.63	.	0.3	0.2	-3.3	1.6
COc1ccc(OC)c(NC(=O)c2oc3c(c2C)C(O)CC(C)(C)C3)c1 (stereo unspecified)	6.7	0.677	i	6.6	1.1	-81.7	0.2
Cn1cccc1-c1nc2ccc(NC(=O)c3cccs3)cc2[nH]1	25.6	0.649	.	0.1	2.1	7.7	4.7
O=C1c2ccccc2C(=O)N1c1ccc(Br)c2cccnc12	-5.8	0.724	i	4.6	1.3	0.8	-3.3
CC1(C)CSC(=NCc2ccccc2)N1C(=O)c1cccc([N+](=O)[O-])c1	0.4	0.711	i	-2.7	1.1	-1.6	-4.0
COC(=O)c1ccc(NC(=S)NC2c3ccccc3CC2O)cc1 (stereo unspecified)	4.1	0.666	.	-2.2	3.8	0.7	1.4
Cc1nc2oc3c(=O)[nH]cnc3c2c2c1COC(C)(C)C2	-4.4	0.676	.	-2.1	-3.6	-3.2	-3.5
COc1cc(C2SCCS2)cc(Br)c1Oc1ncccc1[N+](=O)[O-]	-1.7	0.682	i	-2.5	4.2	-0.5	1.5
CCc1c(C)sc(NC(=S)N2CCN(CC)CC2)c1C(=O)OC	-0.2	0.685	i	-2.6	2.5	6.9	0.8
C(=C\c1ccccc1)/CSc1nnc(-c2cccnc2)o1	-14.3	0.684	i	2.4	1.1	11.0	-2.1
CC1(C)Cc2c(cnn2-c2ccc(F)cc2)C(NC(=O)CN2CCCC2=O)C1 (stereo unspecified)	2.2	0.677	i	2.6	2.0	-16.0	3.5
Cc1ccc(-c2nc(C)sc2CC(=O)OCC(=O)Nc2cccc([N+](=O)[O-])c2)cc1	-0.5	0.677	i	.	1.1	.	-3.7
O=C(O)CCCC(=O)Nc1ccccc1-n1ccnc1	3.5	0.754	.	1.6	1.2	-4.3	1.4
O=[N+]([O-])c1ccc(/C=[N+](\[O-])CCO)o1	-86.6	.	i	0.2	.	-11.0	1.0
Cc1ccc2nc3n(c(=O)c2c1)-c1ccc(Cl)cc1C(=O)NC3Cc1ccccc1 (stereo unspecified)	.	.	i	-5.2	.	2.5	.
Cc1cccc(N2C(=S)NC3c4cc(Cl)ccc4OC2(C)C3C(=O)N(C)C)c1 (stereo unspecified)	2.6	0.71	i	-5.2	3.6	-5.2	0.4
COc1ccc(C(CC(=O)N2CCCC(C)C2)c2c(OC)cc(OC)c3ccc(=O)oc23)cc1 (stereo unspecified)	0.0	0.683	.	1.8	-14.4	-31.3	-2.7
O=C(NC(=S)Nn1cnnc1)c1ccccc1Br	-2.3	0.693	i	-2.7	6.2	3.0	-4.9
CCCN1CCN(C(=O)c2ccc(CS(=O)c3ccc(F)cc3)o2)CC1 (stereo unspecified)	3.0	0.702	i	-8.4	2.2	2.6	3.0
COc1cccc(-c2nc(=S)c3c(o2)CCCC3)c1	-15.0	0.72	i	-4.3	1.3	50.1	-22.9
COc1ccc(C(C)=O)cc1CSc1nc2cc(C(=O)O)ccc2c(=O)n1Cc1ccccc1	-6.2	0.686	i	0.5	-2.5	3.3	8.7
COC(=O)/C=C1\N/C(=N/c2nc(C)c3cc(OC)ccc3n2)NC1=O	4.8	0.62	.	-3.0	-21.8	28.8	2.2
Cc1nn(C(C)C(=O)NCc2ccc(Cl)cc2)c(=O)c2cc3occc3n12 (stereo unspecified)	-5.3	0.636	i	-2.8	-1.0	-1.7	3.7
NC(=O)c1ccsc1NC(=O)c1ccc(S(=O)(=O)N2CCCCC2)cc1	14.6	0.714	i	-4.3	-63.3	44.7	6.0
COc1ccccc1NS(=O)(=O)c1cccc(C(=O)NNC(=O)c2ccc(NC(C)=O)cc2)c1	-2.7	0.71	i	-4.3	0.1	-3.4	0.1
CCCCOc1ccc(N(CC(=O)NCc2ccco2)C(=O)CCC(=O)Nc2nccs2)cc1	-27.2	0.727	i	3.3	7.2	.	0.3

Screening results: PubChem, several laboratories
